High-throughput results deposited in PubChem BioAssay by National Center for Advancing Translational Sciences (NCATS).
Cruzain noTriton: qHTS Assay for Promiscuous and Specific Inhibitors of Cruzain (without detergent) | 200,000 compounds, 2.3% hits | purified cruzain, Z-FR-AMC fluorescence, no detergent | AID 1476, 2009 | Potency, µM, without a hit: max response, negative = inhibition, hits mostly inhibitors; active means well fitted curve in the direction sought with a large enough effect; inconclusive means small, poorly fitted or top-dose-only effect, or another doubt; inactive means no such curve, though single readings can be large; an effect the other way counts as inactive or inconclusive;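 further: plate controls were enzyme without inhibitor for no effect and buffer without enzyme for full effect; nearly all actives have a fitted effect of over 40% in size; top concentration of the series not given in the record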
Target sequence (P25779 123-467 limits assumed): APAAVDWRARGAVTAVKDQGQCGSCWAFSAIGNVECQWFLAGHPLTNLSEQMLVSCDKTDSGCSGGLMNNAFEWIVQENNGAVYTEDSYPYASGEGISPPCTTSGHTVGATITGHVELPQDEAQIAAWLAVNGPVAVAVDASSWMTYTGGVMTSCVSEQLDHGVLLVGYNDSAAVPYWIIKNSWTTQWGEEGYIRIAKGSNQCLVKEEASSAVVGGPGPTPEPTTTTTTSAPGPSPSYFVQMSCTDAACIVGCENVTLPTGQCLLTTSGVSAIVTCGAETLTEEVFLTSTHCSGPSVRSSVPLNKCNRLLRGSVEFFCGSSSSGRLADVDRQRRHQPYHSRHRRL
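Detergent-free condition (0.00005% Triton X-100) in acetate buffer pH 5.5 with DTT. 1.5 nM enzyme and compound were pre-mixed 15 min, then 2 uM Z-FR-AMC substrate added; reaction progress from fluorescence change between first and third reads (60 s).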
NS1 inh: qHTS Assay for Inhibitors of Influenza NS1 Protein Function | 270,000 compounds, 0.4% hits | AID 2326, 2010 | S. cerevisiae slowed by influenza A NS1, growth recovery by OD600 | Potency, µM (doses to about 46.1 µM), for the others: top-dose activity, positive = more growth; further: actives are rising curves; nearly all actives have a fitted effect of over 50% in size
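A cell-based growth assay was used: compounds that relieve NS1-induced slow growth of budding yeast raise OD600. Assay medium was yeast nitrogen base with ammonium sulphate and -URA supplement, pH 6.0, with 2% galactose.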
Lassa entry inh: qHTS for Inhibitors of binding or entry into cells for Lassa Virus; Lassa virus pseudotype entry inhibition, cell reporter; control for the full effect not named in the record; 300,000 compounds, 1.2% hits; Potency, µM (doses to about 37.9 µM), without a hit: at the highest dose activity change, negative = inhibition, actives largely listed as inhibitors; AID 540256, 2011; active means well fitted inhibition curve with a large enough effect; inconclusive means small, poorly fitted or top-dose-only effect, or effect the other way; inactive means flat fitted curve, though single readings scatter; tested in HEK293 cells; further: on the % scale 0 is the no-effect control and ±100 the full control effect; nearly all actives have a fitted effect of over 50% in size; luciferase read-out
SARS PLpro yeast: qHTS of Yeast-based Assay for SARS-CoV PLP; S. cerevisiae expressing SARS-CoV PLpro, growth rescue; control for the full effect not named in the record; Potency, µM (doses to about 32.9 µM), inactives show top-dose activity, positive = growth rescue; 330,000 compounds, 0.19% hits; further: 0% is about no effect; nearly all actives have a fitted effect of over 55% in size; growth read by luminescence after 48 h
Cruzain Triton: qHTS Assay for Promiscuous and Specific Inhibitors of Cruzain (with detergent). 200,000 compounds, 0.43% hits. purified cruzain, Z-FR-AMC fluorescence, 0.01% Triton. Cruzipain (Trypanosoma cruzi), P25779. Potency, µM, without a hit: max response, negative = inhibition, most hits filed as inhibitors; active means well fitted curve in the direction sought with a large enough effect; inconclusive means small, poorly fitted or top-dose-only effect, or another doubt; inactive means no such curve, though single readings can be large; an effect the other way counts as inactive or inconclusive;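 further: plate controls were neutral wells for no effect and buffer without enzyme for full effect; nearly all actives have a fitted effect of over 40% in size; top concentration of the series not given in the record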
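Steps: dispense cruzain (1.5 nM final) in acetate buffer pH 5.5 with DTT and 0.01% Triton X-100; pin-transfer compounds; incubate 15 min RT; add Z-FR-AMC (2 uM final); read fluorescence every 30 s, using the 60 s intensity change.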
RE007 growth inh: qHTS Assay for Inhibitors of the HIV-1 protein Vpr | S. pombe RE007 Vpr strain, BacTiter-Glo ATP luminescence, 24 h; control for the full effect not named in the record | Potency, µM (series often up to 92.2 µM), inactives show at the top dose activity change, negative = less growth | 360,000 compounds, 0.21% hits | AID 651644, 2012; active = well fitted falling curve with a large enough effect; inconclusive = small, poorly fitted or top-dose-only effect; inactive = no such curve, though single readings can be large or run the other way;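 further: on the % scale 0 is the no-effect control and ±100 the full control effect; nearly all actives have a fitted effect of over 50% in size; the assay follows cell death caused by Vpr and the record does not say whether a fall means rescue or toxicity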
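Fission yeast strain RE007, carrying one chromosomally integrated HIV-1 vpr copy, was seeded at OD 0.01 in PMG+AL medium with 23 nL pinned compound. After 24 h at 30 °C and 99% humidity, viability was read by BacTiter-Glo luminescence.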
Marburg entry inh: qHTS for inhibitors of binding or entry into cells for Marburg Virus | Potency, µM (titrated, usually from 37.8 µM), without a hit: top-dose activity change, negative = inhibition, actives largely listed as inhibitors | AID 540276, 2011 | Marburg virus pseudotyped entry inhibition, cell reporter; control for the full effect not named in the record; about a third of the inactives were read at about 46 µM | 300,000 compounds, 1.8% hits; active = well fitted inhibition curve with a large enough effect; inconclusive = small, poorly fitted or top-dose-only effect, or effect the other way; inactive = flat fitted curve, though single readings scatter; tested in HEK293 cells; about a fifth of its hits are not listed in these tables; further: on the % scale 0 is the no-effect control and ±100 the full control effect; luciferase read-out
2A StopGo: High Throughput Screening for Foot and Mouth Disease Virus Antivirals | human cells with a luciferase reporter of 2A StopGo recoding; control for the full effect not named in the record | Potency, µM (highest dose often 57.9 µM), inactives show at the top dose signal change, negative = less light | 410,000 compounds, 1.2% hits; active = well fitted falling curve with a large enough effect; inconclusive = small, poorly fitted or top-dose-only effect; inactive = no such curve, though single readings can be large or run the other way; tested in HEK293T cells; further: on the % scale 0 is the no-effect control and ±100 the full control effect; nearly all actives have a fitted effect of over 45% in size; luciferase light after 4 h
Starred values were filed as active, the others as inactive; ? = inconclusive; nt = no result given; & = joins results of further samples; [ ] = dose if it differs, or a comment. Unless noted, the call rests on the fitted dose curve; in most records, active means well fitted rising curve with a large enough effect; inconclusive means small, poorly fitted or top-dose-only effect; inactive means no such curve, though single readings can be large or run the other way. Potency means the concentration at half of the fitted maximal effect.

Below each compound – Cruzain noTriton | Cruzain Triton | Marburg entry inh | NS1 inh | SARS PLpro yeast | 2A StopGo | RE007 growth inh | Lassa entry inh
CCN(CC)CCNC(=O)c1cn(CC)c2cc(N3CCN(C(=O)c4ccco4)CC3)c(F)cc2c1=O
  nt | nt | nt | -5% | 0% | 6% | -9% | nt
Cc1cccc2cc(CN(Cc3ccc(F)cc3)Cc3nnnn3C3CCCC3)c(=O)[nH]c12
  0% | -8.4% | -27% | -23% | 0% | nt | 2% | ?
O=C(/C=C/c1cccc([N+](=O)[O-])c1)NCCSCc1c(Cl)cccc1Cl
  8% | -3.7% | 2% | -5% | -7% | -8% | 12% | 1%
Cc1coc2c1c(C)cc1oc(=O)c(CC(=O)N[C@H](C(=O)O)C(C)C)c(C)c12
  nt | nt | -2%[46.1 µM] | 9% | 0% | -5% | 4% | -8%[46.1 µM]
Cc1ccc(C)c(S(=O)(=O)N2CCN(C(=O)c3ccc(OCc4c(C)noc4C)cc3)CC2)c1
  nt | nt | ? | nt | 4% | -9% | -8% | ?
O=S(=O)(Nc1ccc(-c2nc3cccnc3s2)cc1)c1cc(F)ccc1F
  nt | nt | nt | 10% | -1% | 25% | 19% | nt
CN1CCc2c(c3ccccc3n2C)C1
  3% | 7.4% | ? | -6% | 0% | 8% | 10% | 2%
COc1ccccc1NC(=O)CCC(=O)OCc1ccc(Br)cc1
  nt | nt | 8%[46.1 µM] | -12% | -2% | -7% | -2% | -7%[46.1 µM]
O=C(Nc1nnc(Cc2ccccc2)s1)c1cccs1
  -26% | -3.0% | 6% | -12% | -6% | 63%[activator] | -13% | 8%
COc1ccc(C2=NN(C(=O)CCC(=O)O)C(c3ccccc3F)C2)cc1 (stereo not given)
  nt | nt | 18% | 9% | 6% | 16% | -1% | -5%
CC(C)(C)c1ccc(Oc2cccc(C3CC(=O)C(C4NCCc5ccccc54)C(=O)C3n3cncn3)c2)cc1 (stereo not given)
  ? | -20% | -34% | 19% | 5% | -28% | 41% | ?
Cc1ccc(C2C3CSCC=C3C(C#N)=C(N)C2(C#N)C#N)cc1 (stereo not given)
  ? | -9.2% | ? | -81% | 2% | nt | -10% | 0%
CCOc1ccccc1C1c2[nH]c3ccccc3c2C[C@H]2C(=O)N(C3CCN(Cc4ccccc4)CC3)CC(=O)N12 (stereo not given in full)
  nt | nt | 20µM* | 6% | -2% | -3% | 9% | ?
O=C(COC(=O)c1cncc(Br)c1)NC1CCCC1
  nt | nt | -5%[46.1 µM] | nt | 2% | 21% | -3% | 1%[46.1 µM]
N#Cc1ccccc1NC(=O)C(=O)NCC(c1cccnc1)N1CCc2ccccc2C1 (stereo not given)
  -7% | -2.0% | nt | nt | nt | -16% | nt | ?
CC(NC(=O)COC(=O)c1cn(-c2ccccc2)nc1-c1cccs1)c1ccccc1 (stereo not given)
  -24% | -3.9% | -21% | 17% | 16% | -13% | -11% | 22%
Cc1ccc(NC(=O)COC(=O)C2CC2)c(Br)c1
  -12% | -3.0% | 15% | 18% | 0% | 26% | 4% | 17%
CCOC(=O)C1=C(C)Nc2ncnn2C1c1cccs1 (stereo not given)
  -4% | 3.7% | 9% | -3% | -2% | ? | 0% | -16%
Cc1ccc(-c2cc(C(=O)N3CCN(C(=O)c4ccco4)CC3)no2)cc1
  1% | -5.9% | 4% | -20% | 0% | -25% | 14% | 4%
O=C(COc1ccc(Cl)cc1)NCCNC(=O)c1cnccn1
  nt | nt | 9%[46.1 µM] | 5% | 0% | -1% | -12% | nt
Cc1nc(N2CCC(C)CC2)c2c(C)c(C(=O)Nc3cccc(C(F)(F)F)c3)sc2n1
  nt | nt | ? | nt | -1% | ? | 2% | -11%
Cc1ccc(S(=O)(=O)N2CCOCC2)cc1C(=O)NC(=S)N1CC(C)CC(C)C1 (stereo not given)
  nt | nt | nt | -4% | -1% | -25% | 12% | nt
CC(=O)c1ccc(NC(=O)c2cc(-c3ccc(C)s3)nc3ccccc23)cc1
  4% | -2.9% | ? | nt | nt | -12% | nt | 27%[46.1 µM]
COc1ccc(NC(=O)NC2(C(=O)N3CCCC3)CCCCC2)cc1
  nt | nt | 4%[46.1 µM] | 4% | 5% | 2% | -2% | 3%[46.1 µM]
CCn1c(SCC(=O)N2c3ccccc3Sc3ccccc32)nnc1-c1ccco1
  -7% | -0.7% | ? | 2%[9.22 µM] | -20% | nt | 1% | -14%
COc1cccc(CNC(=O)c2cnc(N3CCCCC3)c3ccccc23)c1
  -14% | -8.3% | nt | nt | nt | -20% | nt | -3%[46.1 µM]
CC(C)Cn1nc(C(=O)N2CCc3ccccc32)c2ccccc2c1=O
  nt | nt | -26% | nt | -1% | 0% | 7% | -12%
COc1cc(Cl)c(C)cc1N1C(=O)CN(Cc2ccccc2)C1=S
  nt | nt | nt | 14% | -8% | -18% | -1% | nt
COc1ccc(CNC(=O)Cn2ccc3cc(S(=O)(=O)N4CCCCC4)ccc32)c(OC)c1
  ? | -6.3% | nt | nt | nt | -10% | nt | ?
O=C(COC(=O)COc1ccc(Cl)cc1Br)NCc1cccs1
  nt | nt | 4%[46.1 µM] | -8% | -16% | 0% | 0% | 2%
CCOc1ccc(C2CC(c3cccc(OC)c3OC)n3nnnc3N2)cc1Cl (stereo not given)
  6% | -6.4% | 9%&9% | -11% | 2% | -16% | -20% | -11%
Cn1nc(C(F)(F)F)c(/C=N/OC(=O)c2ccc(Cl)cc2)c1Cl
  25% | -0.5% | -19% | -10% | -11% | 9% | 0% | ?
CCN(CC(=O)Nc1ccccc1OC)C(=O)CCOc1ccc(C(C)(C)C)cc1
  nt | nt | -14% | nt | -4% | -21% | 10% | -2%[46.1 µM]
Cc1cc(NC(=O)CCC(=O)N(Cc2cccs2)C(C(=O)NC2CCCC2)c2ccncc2)no1 (stereo not given)
  -7% | -0.9% | -2% | -131% | 6% | -16% | -21% | -4%
CC(C)CC(=O)NC(=S)Nc1ccccc1C(F)(F)F
  12% | -5.8% | 13% | 12% | 24% | 0% | -21% | -8%
Cc1ccc(S(=O)(=O)NCc2ccccc2)s1
  nt | nt | nt | -10% | -6% | 68%[activator] | 1% | nt
CC1(C)C=Cc2c(c3ccccc3[nH]c2=O)O1
  7% | -0.9% | ? | -11% | 3% | -13% | -2% | 8%
CCN1C(=C(C#N)C#N)C=Cc2cc(C)ccc21
  nt | nt | -17%[46.1 µM] | nt | 0% | 6% | -3% | 7%[46.1 µM]
CCOC(=O)N1CCN(C(=O)CNC(=O)c2nn(-c3ccc(OC)cc3OC)c(=O)c3ccccc23)CC1
  nt | nt | 5%[46.1 µM] | 1% | -4% | 23% | 3% | 16%
O=C(Nc1ccccc1C(F)(F)F)c1ccc(F)c(S(=O)(=O)N2CCc3ccccc3C2)c1
  1% | 1.2% | nt | nt | nt | -13% | nt | 0%[46.1 µM]

A different layout for some results above:
SMILES	Cruzain noTriton	Cruzain Triton	Marburg entry inh	NS1 inh	SARS PLpro yeast	2A StopGo	RE007 growth inh	Lassa entry inh
Cc1ccc(S(=O)(=O)N2CCOCC2)cc1C(=O)NC(=S)N1CC(C)CC(C)C1 (stereo not given)	nt	nt	nt	-4%	-1%	-25%	12%	nt
CC(=O)c1ccc(NC(=O)c2cc(-c3ccc(C)s3)nc3ccccc23)cc1	4%	-2.9%	?	nt	nt	-12%	nt	27%[46.1 µM]
COc1ccc(NC(=O)NC2(C(=O)N3CCCC3)CCCCC2)cc1	nt	nt	4%[46.1 µM]	4%	5%	2%	-2%	3%[46.1 µM]
CCn1c(SCC(=O)N2c3ccccc3Sc3ccccc32)nnc1-c1ccco1	-7%	-0.7%	?	2%[9.22 µM]	-20%	nt	1%	-14%

(further entries)
Below each compound – Cruzain noTriton | Cruzain Triton | Marburg entry inh | NS1 inh | SARS PLpro yeast | 2A StopGo | RE007 growth inh | Lassa entry inh
C=CC(=O)NCNC(=O)C=C
  -3% | -2.7% | nt | nt | -5% | -22% | -7% | nt
O=C(COc1ccccc1)NCCSCc1ccc(Cl)cc1
  5% | -6.7% | ? | -4% | -6% | -12% | -11% | 2%
COc1cccc(C(=O)O/N=C(\N)c2ccccn2)c1
  nt | nt | nt | -32% | -15% | -99% | ? | nt
COc1cc2c(cc1OC)C(NC(=O)c1ccc(C)cc1)CC2=O (stereo not given)
  nt | nt | nt | 2% | 1% | -6% | 10% | nt
O=S(=O)(N/N=C\c1cccc(F)c1)c1ccccc1
  nt | nt | nt | -9% | -1% | 113%[activator] | 11% | nt
Cc1cc(S(=O)(=O)NC2CCN(Cc3ccccc3)CC2)c(C)cc1Cl
  nt | nt | ? | 1% | 0% | 2% | 3% | ?
C[C@@H]1NC(=O)[C@H](CCCN=C(N)N)NC(=O)c2cc([N+](=O)[O-])cc(I)c2NCCC[C@@H](C(N)=O)NC1=O
  1% | -13% | 3% | -5% | -5% | -16% | -6% | 5%
CCc1cccc(CC)c1NC(=O)c1c(C)oc2ccc(O)c(CN3CCN(C)CC3)c12
  -5% | -2.4% | ? | nt | nt | -19% | nt | 6%[46.1 µM]
CC(C)C1Cc2c(sc3ncnc(NN)c23)CO1 (stereo not given)
  nt | nt | ? | -6% | -2% | -14% | -7% | ?
COC(=O)CCCCC1SCC(NC(=O)c2ccccc2)C1OC(C)=O (stereo not given)
  nt | nt | nt | 2% | 1% | -16% | 4% | nt
